Compound activity: PubChem, National Center for Advancing Translational Sciences (NCATS)
Vaccinia mCherry: qHTS for Stage-Specific Inhibitors of Vaccinia Orthopoxvirus: mCherry Reporter Primary qHTS | 310,000 tested, 0.63% active | AID 720579, 2013 | Potency, µM (titrated, usually from 36.5 µM), for inactives: top-dose activity change, negative = inhibition, hits mostly inhibitors | Vaccinia virus mCherry reporter infection, fluorescence; about a quarter of the inactives have no number; active = well fitted inhibition curve with a large enough effect; inconclusive = small, poorly fitted or top-dose-only effect; inactive = no such curve, though single readings can be large or run the other way; tested in A549 cells; also: nearly all actives have a fitted effect of over 35% in size; inactives centre near -10
VACV Venus inh: qHTS for Stage-Specific Inhibitors of Vaccinia Orthopoxvirus: Venus Reporter Primary qHTS; Vaccinia virus Venus reporter expression, fluorescence; Potency, µM (titrated, usually from 36.5 µM), without a hit: at the highest dose activity change, negative = inhibition, hits mostly inhibitors; 330,000 tested, 0.46% active; active means well fitted inhibition curve with a large enough effect; inconclusive means small, poorly fitted or top-dose-only effect; inactive means no such curve, though single readings can be large or run the other way; tested in A549 cells; also: nearly all actives have a fitted effect of over 30% in size; inactives centre near -10
The depositor's hits bear a star; i = inactive; ? = inconclusive; nt = not tested or not shown; & = joins results of further samples; [ ] = remark or other dose. % is scaled to controls: 0 for no effect and ±100 for the full control effect; potency is read from the fitted curve at half-maximal effect.

SMILES	Vaccinia mCherry	VACV Venus inh
CC1CCCCN1C(=O)Cn1c(SCC(=O)N(C)c2ccccc2)nc2ccccc21 (stereo not drawn)	-11%	7%
Cc1c(C(=O)N(Cc2ccc(N(C)C)cc2)C2CCS(=O)(=O)C2)oc2ccccc12 (stereo not drawn)	-9%&-12%	16%&-10%
COc1cc(C2C(=O)N(C3CCCCC3)CC(=O)N2CCC2=CCCCC2)ccc1OC(C)C (stereo not drawn)	0%	-16%
O=C(Nn1cnnc1)c1cc2c(s1)CCCCC2	i	-4%
Cc1nnc(SCc2cc([N+](=O)[O-])cc3c2OCOC3)n(N)c1=O	i	1%
Cc1ccc2nc(SCC(=O)N3CC(C)OC(C)C3)nc(=O)n2c1 (stereo not drawn)	-8%	-10%
Oc1ccc(-c2nnc(Nc3cccc(O)c3)c3ccccc23)cc1	?	-23%
COc1ccc(-c2noc3c2-c2nc(-c4ccccc4F)sc2CC3)cc1	-28%	-23%
CC(C)(C)c1ccc(C(=O)Nc2ccc(C=C(C#N)C#N)cc2)cc1	-15%	-18%
CCOC(=O)C1=CCN(S(=O)(=O)c2ccc(C)cc2)C1c1ccc(Br)cc1 (stereo not drawn)	i	-6%
CNc1ncnc2ccc(-c3cccc(NS(C)(=O)=O)c3)cc12	i	0%
COC(=O)c1ccc(C(=O)OC)c(NC(=O)COC(=O)C23CC4CC(CC(O)(C4)C2)C3)c1	?	-11%
O=C(CN1C(=O)/C(=C/c2cccc(Br)c2)SC1=S)Nc1cccnc1	i	60%[activator]
CC(=O)c1c(O)cc(O)cc1O	-1%&-14%	10%&-6%
O=C(N/N=C/c1c(Cl)cccc1Cl)c1ccccc1F	-10%	-11%
CC(NC(=O)c1ccc(N)cc1)c1ccccc1 (stereo not drawn)	i	11%
COc1ccccc1NCCC(=O)OCC(=O)Nc1ccccc1F	-19%	-6%
Cc1ccccc1NC(=S)N1CCCC1	-10%	-12%
CCN1CCN(Cc2ccc(NC(=O)Nc3ccccc3OC)cc2)CC1	i	-19%
O=C(CNc1ccc2ccccc2c1)N/N=C/c1cc2ccccc2nc1Cl	-27%	-12%
COc1ccc(F)cc1-c1cc(C(=O)Nc2cccnc2)[nH]n1	-10%	-14%
C/C(CC(=O)Nc1ccc(Cl)c(C(F)(F)F)c1)=N\NC(=O)c1cc2ccccc2cc1O	?	?
COc1ccc(CN(C)CC(=O)N2CCc3ccccc3C2)cc1	i	0%
O=C(CN(C1CCCCC1)S(=O)(=O)c1ccccc1)NCc1ccco1	-21%	-14%
COc1ccccc1OCCC(=O)OCC(=O)Nc1cc(S(=O)(=O)N(C)C)ccc1Cl	-1%	-12%
O=C(NC1CCCCC1)c1ccc(COCC(F)(F)F)o1	-14%	-10%
Cc1cc(-c2n[nH]c(=S)n2/N=C/C(Br)=C/c2ccccc2)n[nH]1	?	?
COc1cccc(N2CCN(S(=O)(=O)c3cn(C)c(C)n3)CC2)c1	-1%	-1%
CCN(CC)C(=O)Cn1c(=O)n(-c2ccccc2)c(=O)n1CC(=O)N(CC)CC	-16%	0%
O=C(NC1=NCCS1)c1nc(-c2ccccc2)n(-c2ccccc2)n1	nt	-3%

Structures shown so far that contain a CF3 group, in the order listed:
SMILES	Vaccinia mCherry	VACV Venus inh
C/C(CC(=O)Nc1ccc(Cl)c(C(F)(F)F)c1)=N\NC(=O)c1cc2ccccc2cc1O	?	?
O=C(NC1CCCCC1)c1ccc(COCC(F)(F)F)o1	-14%	-10%

Continued:
SMILES	Vaccinia mCherry	VACV Venus inh
O=S(=O)(c1cccc(-c2cn3cc(Cl)ccc3n2)c1)N1CCOCC1	-16%	-12%
COC(=O)[C@@]1(Cc2ccccc2)[C@H]2C(=O)N(C)C(=O)[C@H]2[C@H]2CN=C(SCc3ccc(C)cc3)N21	-27%	-7%
Cc1ccc(NC(=O)Cn2cnc3ccccc32)cc1C	i	-15%
CCOc1cc(C(C#N)N2CCOCC2)ccc1OC (stereo not drawn)	i	0%
O=C(CSc1nnc(-c2ccco2)n1CC1CCCO1)NC1CCCC1 (stereo not drawn)	-13%	-6%
CSc1ccc(-c2nc3cccc(C)n3c2Nc2ccc3c(c2)OCO3)cc1	-28%	-25%
Cc1noc(C)c1-c1nc(CS(=O)(=O)c2ccccc2)no1	i[7.34 µM]	-2%[7.34 µM]
CC(=O)N1CCc2cc(S(=O)(=O)NC(CC(C)C)C(=O)Nc3ccc(C(C)C)cc3)ccc21 (stereo not drawn)	-10%	-16%
CC(=O)Nc1ccccc1-c1nc2ccccc2n(CC(=O)Nc2cccc(C)c2C)c1=O	-12%	-9%
Cc1c(N=C2Nc3cccc4cccc2c34)c(=O)n(-c2ccccc2)n1C	?	-11%&-8%
O=C(CCN1C(=O)c2ccccc2C1=O)NNC(=O)c1ccc(Cl)cc1Cl	-20%	-13%
Cc1cccc(C)c1OCC(=O)Nc1nonc1-c1ccc(Br)cc1	-8%	5%
COc1ccc(SCCN2CC[C@@H](C)CCC2=O)cc1	i	-10%&-14%
CCCn1c(=O)c2ccccc2n2c(SCC(=O)N3CCc4ccccc4C3)nnc12	0%	-15%
CCCc1cc(C(=O)Nc2c(C)nn(Cc3ccc(Cl)c(Cl)c3)c2C)no1	-24%	-16%
COc1ccc(Cl)cc1NC(=O)NCc1ccco1	i	-12%
CC1=CCC2C(=O)N(c3cccc(C(=O)NC(C)c4ccccc4)c3)C(=O)C2C1 (stereo not drawn)	-6%	0%
Cc1cc(C(=O)N/N=C/c2cn[nH]c2-c2ccccc2)cs1	-13%	-15%
COc1ccc(NC(=O)Nc2ccc3c(c2)C(=O)N([C@@H](C)CO)C[C@@H](C)[C@@H](CN(C)S(=O)(=O)c2cccs2)O3)cc1	-28%	-24%
COC(=O)C[C@H]1c2cc(C(F)(F)F)ccc2S(=O)(=O)N1c1ccc(N(C)C)cc1	-16%	-8%&-9%
CCOc1ccccc1NC(=O)c1ccc2oc(=O)c(S(=O)(=O)c3ccc(F)cc3)cc2c1	-12%	6%
CC1CN(S(=O)(=O)c2csc(C(=O)Nc3ccccc3)c2)CC(C)O1 (stereo not drawn)	-20%	-23%
O=C(c1ccc(-n2cccn2)cc1)N1CCc2ccccc2C1	4%	9%
Cc1ccc(S(=O)(=O)NC(C)(C)CSc2ccccn2)cc1	-16%	-5%
CC(NC(=O)CN(C)CC(=O)Nc1ccc(Cl)c(C(F)(F)F)c1)c1ccccc1 (stereo not drawn)	?	-28%
COC(=O)c1c(-c2ccccc2OC)sc2ccccc12	?	-21%
CCOc1cc(C(=O)Nc2cc3c(cc2N2CCCC2)n(C)c(=O)c(=O)n3C)cc(OCC)c1OCC	-15%	-11%
COc1ccccc1CNC(=O)C/C(C)=N/NC(=O)Cc1ccc(Cl)cc1	4%	-7%
COc1ccc2c(c1)CCCN2C(N)=O	-16%	-6%
CCOc1ccccc1C=NN=Cc1ccccc1O	i	-11%
Cc1ccc(C)c(N2CC(O)(c3cccs3)[N+]3=C2CCCC3)c1 (stereo not drawn)	-7%	-9%
COc1ccc(CCC(=O)NC2=NCCS2)cc1OC	-20%	3%
CCOC(=O)C1=C(O)C(=O)N(Cc2cccnc2)C1c1ccc(C)cc1 (stereo not drawn)	-8%	-2%
CC(=O)C1=C(C)Nc2ncnn2C1c1ccccc1OCc1ccccc1 (stereo not drawn)	nt	-16%
COc1ccccc1S(=O)(=O)Cc1ccc(C(=O)NCCN2CCCCCC2)o1	0%	3%
O=C(O)c1ccc(/C=N/Nc2nc3ccccc3[nH]2)cc1	-9%	-2%
Cc1cc(C)cc(N(C(=O)c2csnn2)C(C(=O)NC(C)(C)C)c2ccncc2)c1 (stereo not drawn)	i	-11%
CC(/C=N/NC(=O)c1nnn(-c2nonc2N)c1C)=C\c1ccccc1	-13%	2%
O=C(c1ccccc1Cl)N1CCN(S(=O)(=O)c2cccs2)CC1	-3%	-14%
COc1cc(C(=O)Nc2nnc(C(C)(C)C)s2)c([N+](=O)[O-])cc1OC	-8%	-2%
COc1ccc(OC)c(N=Cc2c(O)[nH]c(=O)[nH]c2=O)c1	-7%	-5%
COc1ccc(N2CC(C(=O)Nc3cccc(S(=O)(=O)N4CCCC4)c3)CC2=O)c(OC)c1 (stereo not drawn)	-1%	-14%
Cc1cc(Oc2ccccc2)nc(C#N)n1	i	-8%
CN1C(=O)c2cccc3c(Br)ccc(c23)C1=O	-9%	2%
COc1ccccc1CNc1ncncc1-c1ccccc1C	-15%	-12%

Structural class: those above containing a thiophene ring, fused or not
SMILES	Vaccinia mCherry	VACV Venus inh
O=C(Nn1cnnc1)c1cc2c(s1)CCCCC2	i	-4%
Cc1cc(C(=O)N/N=C/c2cn[nH]c2-c2ccccc2)cs1	-13%	-15%
COc1ccc(NC(=O)Nc2ccc3c(c2)C(=O)N([C@@H](C)CO)C[C@@H](C)[C@@H](CN(C)S(=O)(=O)c2cccs2)O3)cc1	-28%	-24%
CC1CN(S(=O)(=O)c2csc(C(=O)Nc3ccccc3)c2)CC(C)O1 (stereo not drawn)	-20%	-23%
COC(=O)c1c(-c2ccccc2OC)sc2ccccc12	?	-21%
Cc1ccc(C)c(N2CC(O)(c3cccs3)[N+]3=C2CCCC3)c1 (stereo not drawn)	-7%	-9%
O=C(c1ccccc1Cl)N1CCN(S(=O)(=O)c2cccs2)CC1	-3%	-14%

Additional records
SMILES	Vaccinia mCherry	VACV Venus inh
CS(=O)(=O)N1CCC(C(=O)NCCC2=CCCCC2)CC1	i	-5%
C=CCNc1nc(Nc2ccc([N+](=O)[O-])cc2)nc(OC)n1	-11%	-3%
Cc1ccc2[nH]c(=O)c(CN(CCN3CCOCC3)C(=O)Nc3ccccc3F)cc2c1	i	-8%
O=C(NCc1ccncc1)C1Cc2c(-c3ccc4c(c3)OCO4)ccnc2O1 (stereo not drawn)	-25%	-23%
O=C(COc1ccc(Br)cc1Cl)NC1CCN(Cc2ccccc2)CC1	?	0%
CC(C)CCNC(=O)CN(Cc1ccco1)C(=O)CCC(=O)Nc1nccs1	-23%	-7%
Cc1ccc(N2CC(NC(=O)c3ccc(S(=O)(=O)N4CCCCC4)cc3)CC2=O)cc1 (stereo not drawn)	-5%[7.34 µM]	-11%[7.34 µM]
COc1cc(NC(=O)c2ccc(-c3cccc([N+](=O)[O-])c3)o2)ccc1NC(=O)C(C)C	-19%	?
CCOc1ccccc1-c1nc(-c2ccc(NC(=O)Cc3ccc(OC)cc3)cc2)no1	nt	?
COCCNC(=O)Nc1ccc(F)cc1	0%	-2%
O=C(Nc1cccn2ncnc12)C(Cl)Cl	-6%	-12%
CNc1nc(Oc2ccc3sc(C)nc3c2)c2sccc2n1	12%	-12%
CCCOc1ccc(C2c3c(-c4c(C)cc(C)cc4O)n[nH]c3C(=O)N2CCO)cc1 (stereo not drawn)	-29%	-23%
COc1ccc(CNC(=O)C(=O)NCC2OCCN2S(=O)(=O)c2ccc(C)cc2)cc1 (stereo not drawn)	-14%	-6%
Nc1nnc(SCC(=O)NC2CCCCCCC2)s1	-24%	-4%
O=C(Nc1ccc(S(=O)(=O)N2CCCC2)cc1)c1ccc2c(=O)n3c(nc2c1)CCCCC3	-12%	-4%
Cc1ccc2ccc(C(Nc3ccccc3)c3ccc(Cl)cc3)c(O)c2n1 (stereo not drawn)	?	5%
NCCCC[C@H]1CNC(=S)N1CCc1cccc(F)c1	i	1%
CCOc1cc(CNCc2ccc(C(=O)O)cc2)ccc1OC	-19%	-10%
O=C(c1ccc(CS(=O)Cc2cccc(Cl)c2)o1)N1CCN(c2ccc(F)cc2)CC1 (stereo not drawn)	?	-21%
COc1ccc(OCC(=O)N2c3ccccc3CCc3ccccc32)cc1	i	0%
CN(C)c1ccc(/C=c2\sc3n(c2=O)CCCN=3)cc1	i	1%
Cc1ccc(S(=O)(=O)N(C)C)cc1NC(=S)Nc1ccc2cn[nH]c2c1	-23%	-6%
CC(=O)Nc1ccc(NS(=O)(=O)c2c(C(=O)N3CCC(C)CC3)c(C)n(C)c2C)cc1	-14%	-5%
COc1ccc(CN2C(=O)C(CC(=O)NC3CCCCC3)CC(C(=O)N(C)C)=C2C)cc1 (stereo not drawn)	-12%	-20%
Cc1ccc(N2C(=O)C(CN3CCCCC3)C2c2ccccc2)cc1 (stereo not drawn)	-22%	-13%
Cc1cc(C)cc(NC(=O)CSc2c(C(C)C)cnc3c2c(=O)n(C)c(=O)n3C)c1	-12%	-24%
COc1ccc(C2C(=O)N(C3CCCCCC3)CC(=O)N2CCc2ccc(Cl)cc2)cc1OC (stereo not drawn)	-3%	-12%
COc1ccc(CN2CCCCC2C)cc1OC (stereo not drawn)	-14%	-11%
COc1cccc(-n2c(/C=C/c3ccccn3)nc3ccccc3c2=O)c1	-11%	-10%
Cc1cc(NC(=S)Nc2cccnc2)ccc1Br	i	-20%
c1ccc(N=Nc2cn[nH]c2-c2ccco2)cc1	?	-25%
COc1ccc(OC)c(S(=O)(=O)Nc2ccc3c(c2)n(C)c(=O)n3C)c1	-19%&4%	-16%&-3%
O=C(N[C@@H](Cc1ccccc1)C(=O)OCC(=O)N1CCOCC1)c1cccs1	i	-7%
CC(C)CN(C(=O)COC(=O)c1cc(=O)[nH]c2ccccc12)c1c(N)n(Cc2ccccc2)c(=O)[nH]c1=O	-17%	-9%
CCOC(=O)C1=C(COC(=O)c2cccc(Br)c2)NC(=O)NC1C (stereo not drawn)	i	-13%
O=c1cc(CN2CCOCC2)c2ccccc2o1	19%	3%

A portion taken from the entries so far:
SMILES	Vaccinia mCherry	VACV Venus inh
Cc1cc(NC(=S)Nc2cccnc2)ccc1Br	i	-20%
c1ccc(N=Nc2cn[nH]c2-c2ccco2)cc1	?	-25%
